NPYLR7 agonist = agonists of mosquito NPYLR7 receptor, primary screen, cell-based, Aedes aegypti, calcium fluorescence, mosquito biting behavior | HEK293T NPYLR7/Galpha15, GCaMP6s calcium fluorescence | activation, % at 10 µM | Aedes aegypti neuropeptide Y-like receptor 7 (NPYLR7) | actives 0.15% (n = 270,000); in the data active means activation above about 40%;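 further: 0% = vehicle and 100% = reference agonist at the receptor; some compounds past the cut are filed as inactive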
NPYLR7 agonist max-min = also measured in NPYLR7 agonist; calls as there; activation, %; measured here: Max-Min RFU normalised activation; some inactives read as strong as hits;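 span of the calcium signal over five minutes; 0% = vehicle and 100% = native peptide agonist; compound fluorescence can raise it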
The depositor's hits bear a star; & = joins results of further samples. Some of the compounds tested; the hit share may differ from the screen's.

SMILES	NPYLR7 agonist	NPYLR7 agonist max-min
CC1=C(C(=O)Nc2cccnc2)C(c2cccnc2)n2nc(SCc3ccccc3)nc2N1 (stereo not drawn)	-1	-1
Nc1ncc(-c2cc(C(F)(F)F)cc(C(F)(F)F)c2)cc1-c1ccc(F)cc1F	-5	-6
C=CCn1c(SCC(=O)NCCN2CCOCC2)nc2sc3c(c2c1=O)CCC3	3&0	3&-3
CC1=C(C(=O)O)Sc2nc3ccccc3c(=O)n2N1	5	4
Cc1ccc(S(C)(=O)=O)cc1C(=O)OCc1ccccc1C(F)(F)F	-2	-3
COc1ccccc1-c1cc(C(=O)N2CCN(c3cccc(Cl)c3)CC2)n2nc(-c3ccc(Cl)cc3)cc2n1	16&-11	16&-6
CCCn1c(=O)c2[nH]c(C3CCCC3)nc2n(CCC)c1=O	-10&-7	-13&-12
CCc1ncc(C(=O)NC(C)(C)CC(C)(C)C)s1	1	-2
O=C1NC2(CCN(C(=O)Nc3ccc(Cl)cc3)CC2)Nc2ccc(Br)cc21	4	4
CCc1noc(CN2CCOc3c(O)cc(-c4nc(C)cnc4C)cc3C2)n1	7	3
COc1ccc(OC)c(S(=O)(=O)N2CCN(C(=O)Nc3ccc(Cl)cc3)CC2)c1	17	6
Cc1ccc(-c2nc3scc(CCNS(=O)(=O)c4ccc(Oc5ccccc5)cc4)n3n2)cc1	-17	-14
C=C(C)CN1CCN(c2cc(CCC)nc3c4c(C)cc(C)nc4nn23)CC1	3	4
Cc1ccccc1CSc1[nH]c(=O)ncc1C	-1	-2
COc1ccccc1CN1CCCn2cccc2C1c1cccc(C(F)(F)F)c1 (stereo not drawn)	-6	-5
CN1CCN(C(=O)CCCN2C(=O)/C(=C/c3ccc(Cl)cc3)SC2=S)CC1	1	-2
CCCN(CCC)C(=O)Cn1nc(CC)n2c(cc3sccc32)c1=O	12	9
N#Cc1cccc(OC2CC3CCC(C2)N3C(=O)c2ccc(CSc3ccc(C(F)(F)F)cn3)cc2)c1 (stereo not drawn)	8	2
O=C(NCCOc1ccc2nnc(-c3ccccc3)n2n1)Nc1cccs1	16	8
O=C1COCc2ccc(-c3cccnc3)cc2N1CC1CC1	6	1
CCc1cc(=O)[nH]c(-n2nc(C)cc2NC(=O)C2CC(=O)N(c3ccc(Cl)cc3)C2)n1 (stereo not drawn)	11	2
CCNc1cc(C)nc(N2CCN(C(=O)c3ccc(-c4ccccc4)cc3)CC2)n1	10	4
CCOC(=O)c1ccccc1NC(=O)CCCn1nc(-c2ccc(F)cc2)ccc1=O	6	6
O=C(NC(C(=O)OCC(=O)N1CCN(C23CC4CC(CC(C4)C2)C3)CC1)c1ccccc1)c1ccccc1 (stereo not drawn)	-4	-9
Cc1ccc(S(=O)(=O)N2CCN(C(=O)c3ccc(I)cc3)CC2)cc1C	-1	27
Cn1c(=O)c2c(nc(N3CCNCC3)n2CC(N)=O)n(C)c1=O	9	6
Cc1cc(C)c2[nH]c(C(=O)NCCc3cnc[nH]3)c(C)c2c1	10	5
COc1ccc(-c2nc3cc(C)cc(C)n3c2NC(C)(C)C)cc1	1	6
O=C(c1ccccc1)C1CCCN(Cc2nc(-c3ccc(C(F)(F)F)cc3)no2)C1 (stereo not drawn)	12	7
OC(c1ccccc1)(c1ccccc1)c1ccc(CN(Cc2ccsc2)CC2CCCO2)o1 (stereo not drawn)	-4	2
CCOC(=O)N1CCc2c(sc(NC(=O)c3cccc(OC)c3)c2-c2nc3ccccc3s2)C1	2	2
Cc1nc(C(F)(F)F)nc(N2CCC(c3ccccc3C(=O)O)C2)c1C (stereo not drawn)	-4	-12
Cc1ccc(F)c(NC(=O)CCc2nc(C(C)C)no2)c1	8	5
CCCCc1ncc(-c2nccn2CC(F)(F)F)[nH]1	11	5
O=C(Nc1ccc(F)cc1F)NC(Cc1ccccc1)c1nnc(SCc2ccccc2)n1-c1ccc(Cl)cc1Cl (stereo not drawn)	21	23
COc1cc(C)c(C(C)NC(=O)c2ccc(F)cc2Cl)cc1OC (stereo not drawn)	6	5
CN1CCN(c2nc(-c3ccc(F)cc3)cc(C(F)(F)F)n2)CC1	-3	-3
O=C(COc1ccc(Oc2ccccc2)cc1)Nc1cccc(S(=O)(=O)N2CCOCC2)c1	1	-1
CNC(=O)CSc1ncc(-c2ccc(Br)cc2)n1CCOC	-2	3
Cc1c(C(=O)Nc2ccc(N3CCCC3)c(F)c2)oc2c1C(=O)CCC2	1	-2
Cc1cc(C(=O)N(C)CCOCC2CC2)ccc1F	7	5
COc1ccc(Cc2noc(C3(C)CC3)n2)cc1	1	-3
CCOC(=O)c1cc(-c2ccc(N3CCN(C(=O)[C@@H]4C[C@H]4c4ccccc4)CC3)cc2)n(-c2ccccn2)n1	14	5
O=C(c1ccc2c(c1)OCCO2)N1CCCC(CNS(=O)(=O)c2cccs2)C1 (stereo not drawn)	10	13
Cc1[nH]cc[n+]1CC1CCC2C(C1=O)c1ccccc1N2C (stereo not drawn)	-2	4
COc1ccc(C(=O)Nc2ccccn2)cc1S(=O)(=O)N1CCOCC1	-12	-17
Cc1ccccc1C1c2[nH]c3ccccc3c2CCN1C(=O)CCc1ccco1 (stereo not drawn)	-14	-13
Cc1ccsc1C(=O)N(Cc1ccccc1)CC(C)CO (stereo not drawn)	-5	-8
COCCOc1c(Cl)cccc1NC(=O)CN1CCS(=O)(=O)CC1	-12	-11
Cc1nc2scc(C)n2c(=O)c1NC(=O)CC(C)(C)C	27	21

Next section.
SMILES	NPYLR7 agonist	NPYLR7 agonist max-min
COCCN(CC(=O)N1CCc2sccc2C1c1ccccc1)C(=O)c1ccc(Cl)cc1Cl (stereo not drawn)	1	13
O=C(CSc1cccc[n+]1[O-])C12CC3CC(CC(C3)C1)C2	5	1
S=C(Nc1ccccn1)Nc1ccccn1	0	-3
Cc1cc(C)n(CCCN(C)C(=O)c2csc(-c3cccs3)n2)n1	-1	9
Cc1cc(C)n(CCN(C(=O)C2CC2)c2nc3c(F)cc(F)cc3s2)n1	-17	-22
Cc1nn(C(C)C(=O)NCC2CCCO2)c(=O)c2cc3sccc3n12 (stereo not drawn)	6	6
Cc1ccc(C2CC(C(F)(F)F)n3ncc(C(=O)Nc4cc(Cl)ccc4Cl)c3N2)cc1 (stereo not drawn)	0	-4
COC(=O)c1ccc(C(=O)N(CCCN(C)C)c2nc3c(C)cccc3s2)cc1	6	4
CCOC(=O)N1CCN(Cc2cc3n(n2)CCNC3)CC1	7	2
O=C(CCCn1cncn1)N1CCc2c(nc(-c3ccccc3)[nH]c2=O)C1	2	1
CC(C)[C@H](NS(=O)(=O)c1ccc(-c2ccc(Br)cc2)cc1)C(=O)O	-6	-14
Cc1cc(C)cc(-c2nc3ccccn3c2NC(=O)C(C)C)c1	-3	1
CC1CCCC(NC(=O)c2cccnc2Oc2cccc([N+](=O)[O-])c2)C1 (stereo not drawn)	-8	-16
COC(=O)CNC(=O)COC(=O)c1ccc(C#N)cc1	2	2
CC1(C)CN=C(N2CCN(S(=O)(=O)c3cnn(Cc4ccccc4)c3)CC2)S1	-2	-29
Nc1nc(-c2sc3nc4c(cc3c2N)CCCCC4)nc(N2CCOCC2)n1	2	0
O=C(CSCc1cc(-c2ccc(Cl)cc2Cl)no1)N1CCOCC1	3	1
CS(=O)(=O)Nc1ccc(NC(=O)CCNS(=O)(=O)c2ccc(F)cc2)cc1	5	2
CCCCC(=O)Nc1ccc(C)cc1NC(=O)c1cc(C)nn1CC	-4	-5
CCCn1ccnc1C1CC(=O)Nc2c1c(C)nn2CCC(C)C (stereo not drawn)	11	4
O=C(Nc1ccc(-c2cnc(C3CC3)o2)cc1)C1CC(=O)N(c2ccccc2)C1 (stereo not drawn)	10	4
CCC(Sc1nnc2ccccn12)C(=O)Nc1cc(C)on1 (stereo not drawn)	-6	-9
CN1CCCn2nc(C(=O)N(C)C3Cc4ccccc4C3)cc2C1	18	16
CCC(C(=O)N(CCOC)CC(=O)N1CC(=O)N(c2cccc(C)c2)C1)c1ccccc1 (stereo not drawn)	21	25
O=C(c1ccco1)N(Cc1cccc(Cl)c1)CC1CC(c2cccc(F)c2)=NO1 (stereo not drawn)	17	29
COCC(=O)Nc1ccc(-c2cccc(C(F)(F)F)c2)cc1C(=O)OC	1	2
Cc1ccc(NC(=O)N2CCCC(OCc3ccc(F)cc3)C2)cc1 (stereo not drawn)	-4	-2
CC(C)(C)c1cc(NCCOCCO)n2ncc(-c3ccccc3)c2n1	0	1
COc1ccc(C=CC(=O)NCCN2CCOCC2)cc1S(=O)(=O)N1CCCCC1	22	4
COc1cccc(-n2nc(C(=O)O)c(=O)n(Cc3cccc(C)c3)c2=O)c1	7	10

As a short view, 24 of the compounds above.
SMILES	NPYLR7 agonist	NPYLR7 agonist max-min
Cc1cc(C)n(CCCN(C)C(=O)c2csc(-c3cccs3)n2)n1	-1	9
Cc1cc(C)n(CCN(C(=O)C2CC2)c2nc3c(F)cc(F)cc3s2)n1	-17	-22
Cc1nn(C(C)C(=O)NCC2CCCO2)c(=O)c2cc3sccc3n12 (stereo not drawn)	6	6
Cc1ccc(C2CC(C(F)(F)F)n3ncc(C(=O)Nc4cc(Cl)ccc4Cl)c3N2)cc1 (stereo not drawn)	0	-4
COC(=O)c1ccc(C(=O)N(CCCN(C)C)c2nc3c(C)cccc3s2)cc1	6	4
CCOC(=O)N1CCN(Cc2cc3n(n2)CCNC3)CC1	7	2
O=C(CCCn1cncn1)N1CCc2c(nc(-c3ccccc3)[nH]c2=O)C1	2	1
CC(C)[C@H](NS(=O)(=O)c1ccc(-c2ccc(Br)cc2)cc1)C(=O)O	-6	-14
Cc1cc(C)cc(-c2nc3ccccn3c2NC(=O)C(C)C)c1	-3	1
CC1CCCC(NC(=O)c2cccnc2Oc2cccc([N+](=O)[O-])c2)C1 (stereo not drawn)	-8	-16
COC(=O)CNC(=O)COC(=O)c1ccc(C#N)cc1	2	2
CC1(C)CN=C(N2CCN(S(=O)(=O)c3cnn(Cc4ccccc4)c3)CC2)S1	-2	-29
Nc1nc(-c2sc3nc4c(cc3c2N)CCCCC4)nc(N2CCOCC2)n1	2	0
O=C(CSCc1cc(-c2ccc(Cl)cc2Cl)no1)N1CCOCC1	3	1
CS(=O)(=O)Nc1ccc(NC(=O)CCNS(=O)(=O)c2ccc(F)cc2)cc1	5	2
CCCCC(=O)Nc1ccc(C)cc1NC(=O)c1cc(C)nn1CC	-4	-5
CCCn1ccnc1C1CC(=O)Nc2c1c(C)nn2CCC(C)C (stereo not drawn)	11	4
O=C(Nc1ccc(-c2cnc(C3CC3)o2)cc1)C1CC(=O)N(c2ccccc2)C1 (stereo not drawn)	10	4
CCC(Sc1nnc2ccccn12)C(=O)Nc1cc(C)on1 (stereo not drawn)	-6	-9
CN1CCCn2nc(C(=O)N(C)C3Cc4ccccc4C3)cc2C1	18	16
CCC(C(=O)N(CCOC)CC(=O)N1CC(=O)N(c2cccc(C)c2)C1)c1ccccc1 (stereo not drawn)	21	25
O=C(c1ccco1)N(Cc1cccc(Cl)c1)CC1CC(c2cccc(F)c2)=NO1 (stereo not drawn)	17	29
COCC(=O)Nc1ccc(-c2cccc(C(F)(F)F)c2)cc1C(=O)OC	1	2
Cc1ccc(NC(=O)N2CCCC(OCc3ccc(F)cc3)C2)cc1 (stereo not drawn)	-4	-2

Next part
SMILES	NPYLR7 agonist	NPYLR7 agonist max-min
O=C(C1CCC1)N1C[C@@H](O)[C@H](NCc2ccccn2)C1	-1	-1
CCC(C)N(CC(=O)N(Cc1cccn1Cc1ccccc1Cl)CC(C)C)C(=O)C1C[C@H]1c1ccccc1 (stereo partly drawn)	-3	2
CC(C)C(CCO)Nc1ccc(C#N)cc1F (stereo not drawn)	18	15
CCn1nc(C)c(CN2CCC(C(Cc3ccc(F)cc3F)N(C)C(=O)c3ccco3)CC2)c1C (stereo not drawn)	0	-7
C=c1onc(-c2ccccc2)c1=c1[nH]/c(=C\C(Br)=C\c2ccccc2)c(=O)o1	-5	-6
Cc1cccc(OCC(=O)Nc2sc3c(c2C(=O)NCC2CCCO2)CCCC3)c1 (stereo not drawn)	1	0
COCCCn1c(C)c(C)n2c3c(=O)n(Cc4ccc(F)cc4)c(=O)n(C)c3nc12	-7	-7
O=C1NC(=S)N/C1=C/c1ccc(N2N=C(c3ccccc3)CC2c2ccccc2)cc1 (stereo not drawn)	2	-1
CCCCN(C)C(=O)c1sc(=O)n(Cc2ccc(C)cc2)c1C	2	-1
CCOC(=O)C1CCCN(C(c2ccc(OCC)cc2)C2Sc3nc(CC)nn3C2=O)C1 (stereo not drawn)	10	17
O=C(NC(Cc1ccccc1)c1ccccc1)c1csc(CSc2nnc(-c3ccccc3Cl)n2-c2ccccc2F)n1 (stereo not drawn)	0	4
Cc1n[nH]c(C)c1CCCNC(=O)c1ccc(NC(=O)C2CCC2)cc1	22	10
CC(C)c1cc(N(C)CCCN2CCOCC2)n[nH]1	4	5
Cc1ccccc1C1(O)CCN(C(=O)CCc2cn3ccccc3n2)C1 (stereo not drawn)	2	5
COC(=O)c1ccc(N2C(=O)CC(NCc3ccc(S(N)(=O)=O)cc3)C2=O)cc1 (stereo not drawn)	2	0
CC1C(=O)N(c2ccc3c(c2)OCO3)CCN1C(=O)c1cccc(Cl)c1 (stereo not drawn)	12	16
CCCCc1nc2c(o1)N=C(N)C(C#N)C2c1ccc(N(C)C)cc1 (stereo not drawn)	0	-3
O=C(Nc1ncc(-c2ccccc2)s1)C1CSCCS1 (stereo not drawn)	3	2
CCN(Cc1ccccc1F)C(=O)c1cnc(-c2ccccn2)nc1	-5	-7
Cc1cccc(NC(=O)NNC(=O)c2cccn(Cc3cccc(Cl)c3)c2=O)c1	2	-2
CCN(CC)CCNC(=O)c1ccc(NC(=O)c2ccc(N3CCCC3)c([N+](=O)[O-])c2)cc1	2	-2
COCCN(Cc1ccc(OS(C)(=O)=O)cc1)C(=O)Nc1ccccc1F	-5	-1
CCNC(=O)CNC(=O)COc1ccc(Cl)cc1Cl	-6	23
O=C(NCc1cccnc1Oc1ccccc1F)c1ccc2cccnc2n1	9	-10
CN1CCN(C)C2(CCN(c3ncccc3C(=O)N3CCCC3)CC2)C1	7	4
